CSC inhib = blocks cancer stem cells. cancer stem cell-like cells viability, luminescence. inhibition, % at 7.5 µM. 300,000 compounds, 1.1% hits. AID 2717;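 active means mean at 75% or more and at least half the replicates too; tested in HMLE shEcad cells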;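 further: 0% = median of negative and 100% = median of positive control wells; the first replicate is given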
HIV Env fusion = blocks HIV Env-driven cell-cell fusion. HeLa-JRFL Env/CEM21 cell fusion, luciferase. inhibition, % at 12.3 µM. 360,000 compounds, 1.1% hits;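 active means mean replicate inhibition score of at least 50 and every replicate individually at or above 50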;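 further: 0% = plate neutral controls and 100% = maraviroc near 300 nM; one replicate is shown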
eIF4H inh = inhibitors of RNA binding by human eIF4H | Q15056 | eIF4H fluorescence polarization binding assay | inhibition, % at 35 µM | 290,000 compounds, 0.94% hits | AID 2012;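 active means 50% or more with normal probe brightness, or confirmed in later tests; about a fifth of its hits are not listed in these tables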;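 further: calls also rest on retests at 20 µM and on dose response follow-up; 0% = protein and probe with vehicle and 100% = probe without protein; strong numbers were not always called active; many hits fall short of the cut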
MT1-MMP act inh = MT1-MMP (human) activation inhibition. P50281. HT1080 RFP-PRO-GFP cells, GFP/RFP ratio fluorescence, overnight; percent of plate control window, DMSO zero. GFP/RFP ratio change, % at 20 µM. 360,000 compounds, 0.061% hits;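 active means GFP/RFP ratio change of at least 30% with cell ATP level not reduced by more than half and red fluorescence within 50% of control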; further: strong numbers were not always called active
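Assay system: HT1080 cells carrying an RFP-PRO-GFP reporter | Dosing: Single dose of 20 µM compound, 1% DMSO final | Incubation: Cells overnight before dosing, compound overnight, 37 °C, 5% CO2 | Evaluation: GFP/RFP fluorescence ratio | Control set: DMSO and RFP-L50D-GFP cell wells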
Rce1 inhib = yeast Ras-converting enzyme inhibition | Q03530 | yeast membranes, quenched prenylated peptide cleavage fluorescence | calls only | 290,000 compounds, 0.27% hits;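 active means fall in fluorescence gain of 50% or more versus controls, with final raw signal at or below 3038400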;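 further: plate controls were neutral control wells for no effect and wells lacking membranes for full effect; tested at 10 µM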
PABP polyA inh = blocks human PABP binding to poly(A) RNA | P11940 | fluorescence polarization | inhibition, % at 35 µM | 290,000 compounds, 1% hits;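 active means 50% or more with normal probe brightness, or confirmed in later tests; about a fifth of its hits are not listed in these tables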;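 further: calls also rest on retests at 20 µM and on dose response follow-up; controls were probe without protein and protein plus probe with vehicle; some compounds called inactive have numbers as strong as hits; many hits fall short of the cut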
Target sequence (P11940 whole entry, looked up): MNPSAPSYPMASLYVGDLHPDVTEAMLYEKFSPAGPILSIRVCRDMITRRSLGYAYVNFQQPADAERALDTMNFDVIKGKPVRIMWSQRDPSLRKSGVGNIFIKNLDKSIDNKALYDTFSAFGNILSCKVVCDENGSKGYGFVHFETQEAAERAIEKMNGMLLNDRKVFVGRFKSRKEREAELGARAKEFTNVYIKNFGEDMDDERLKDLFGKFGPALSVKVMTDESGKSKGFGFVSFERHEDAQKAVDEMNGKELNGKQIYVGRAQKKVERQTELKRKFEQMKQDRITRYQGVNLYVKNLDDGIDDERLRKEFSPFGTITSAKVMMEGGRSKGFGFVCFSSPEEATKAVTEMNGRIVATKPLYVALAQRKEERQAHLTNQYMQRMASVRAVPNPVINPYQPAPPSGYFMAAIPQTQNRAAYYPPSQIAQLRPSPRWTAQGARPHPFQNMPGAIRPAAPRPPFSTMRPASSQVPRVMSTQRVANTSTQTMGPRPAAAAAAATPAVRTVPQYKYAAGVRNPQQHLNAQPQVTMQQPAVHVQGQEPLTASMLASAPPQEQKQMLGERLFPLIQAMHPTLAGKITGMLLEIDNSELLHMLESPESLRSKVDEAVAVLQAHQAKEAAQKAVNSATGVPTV
UUG fidelity = modulators of start codon recognition fidelity in yeast; S. cerevisiae UUG-firefly luciferase reporter, luminescence/redox ratio; activity score, % at 18.7 µM; 350,000 compounds, 0.13% hits;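 active means replicate mean at a twofold rise or more, about +100% in these data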;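 further: firefly luciferase made from a UUG start codon reports start codon fidelity; reporter light over untreated wells divided by growth signal over untreated wells; some hits fall short of that in this replicate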
eIF4H inh retest = recorded beside eIF4H inh, whose call it bears; inhibition, %; compound at 20 µM; confirmation average;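 mean of two retest wells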
PABP polyA inh retest = also measured in PABP polyA inh; calls as there; inhibition, %; compound at 20 µM; confirmation repeats;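 mean of two retest wells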
MT1-MMP act inh RFP = also measured in MT1-MMP act inh; calls as there; RFP signal change, %; measured here: RFP expression control read;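 0 = vehicle wells; hits needed this value within 50% of zero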
Numbers without * were called inactive; i = inactive; · = no result given; & = joins results of further samples; [ ] = another dose, or the depositor's remark. These rows are one share of the data; count on the stated rates, not on these rows.

SMILES | CSC inhib | HIV Env fusion | eIF4H inh | MT1-MMP act inh | MT1-MMP act inh RFP | Rce1 inhib | PABP polyA inh | UUG fidelity | others
O=C(NCc1ccccc1)c1ccc(NC2=NC3CS(=O)(=O)CC3S2)cc1 (configuration not stated) | -5 | · | -12 | 1 | 2 | i | 8 | -3
Cc1cc(Nc2nc3ccccc3nc2Cl)n(-c2ccc([N+](=O)[O-])cc2)n1 | 34 | · | -1 | -21 | -23 | i | -3 | ·
CCOC(=O)N1CCN(c2ncc(C(F)(F)F)cc2Cl)CC1 | -6 | 1 | -13 | -2 | -9 | i | -4 | ·
COCCN(Cc1cc2cc(C)ccc2[nH]c1=O)S(=O)(=O)c1ccc(Cl)cc1 | -13 | 6 | -4 | -8 | -14 | i | -1 | -9
Nc1ccc2c(c1Cl)C(=O)c1ccc(N)c(Cl)c1C2=O | · | -31 | 109* | 5 | 5 | i | 79* | -10
Cc1ccc(CSc2nnc(CCNC(=O)OC(C)(C)C)o2)cc1 | 13 | 3 | 0 | -2 | 1 | i | 7 | 8
NC(=O)Nc1ccc(C(=O)OCC(=O)NCc2ccc3c(c2)OCO3)cc1 | · | -2 | · | 1 | -2 | · | · | -12
COc1cc2c(cc1OC)C(C(=O)NCc1ccco1)C1c3ccccc3CCN1C2=O (configuration not stated) | 6 | -5 | -1 | 1 | 4 | i | 0 | -10
CC(=O)N1CCN(C(=O)C(Cc2ccccc2)NC(=O)c2ccccc2)CC1 (configuration not stated) | · | 1 | · | -3 | 7 | · | · | -5
CC(=O)c1c(C(C)=O)c(C)n(Cc2ccccc2)c1C | -12 | 32 | -4 | 1 | -8 | i | 7 | -6
CCN(CC)CCCNS(=O)(=O)c1ccc(OC)cc1 | -15 | · | 0 | 6 | 1 | i | 12 | ·
COc1cc(C2C(C#N)=C(N)Oc3cc(C)n(CCc4ccccc4)c(=O)c32)cc2c1OCO2 (configuration not stated) | · | 0 | 2 | -3 | -5 | · | 1 | -12
CCCCSc1nnc(-c2ccc(NC(=O)CCc3ccccc3)cc2)n1C | -12 | 11 | -8 | -10 | -16 | i | 15 | -9
CNC(=S)N1N=C(c2ccccc2)CC1c1ccc(OC)c(OC)c1 (configuration not stated) | -4 | · | -11 | 6 | 5 | i | 22 | ·
CCOc1ccc(NC(=O)c2cccc3c2C(=O)N(CC2CCCO2)C3)cc1 (configuration not stated) | · | -51 | 3 | 5 | 2 | i | -8 | -9
COc1ccc(N2CCN(S(=O)(=O)c3ccc(C(=O)NCc4ccco4)cc3)CC2)cc1 | · | · | -1 | -3 | -12 | i | 4 | 4
Cc1ccc(S(=O)(=O)N2CCN(C(=O)COC(=O)c3c(C)cc(C)cc3C)CC2)c(C)c1 | · | 14 | · | -2 | -8 | i | · | 16
CCC(C)NC(=O)CN(c1ccc(OC)cc1)S(=O)(=O)c1ccc(NC(C)=O)cc1 (configuration not stated) | -7 | -65 | 1 | -3 | 1 | i | -4 | -15
COc1cc(OC)cc(-c2c(C#Cc3ccsc3)c3cc(-c4cc(OC)c(OC)c(OC)c4)ccc3n2C)c1 | 6 | 17 | · | -1 | 4 | · | · | -18
CCc1nnc(NC(=O)c2cccc(OC)c2)s1 | 7 | · | -14 | 2 | 11 | i | -10 | ·
Cn1c(CNC(=O)c2ccco2)nnc1SCC(=O)Nc1ccc(Br)cc1F | 3 | · | 4 | -1 | -3 | i | 3 | ·
O=C(N/N=C/c1cc(Br)c(O)c([N+](=O)[O-])c1)C(O)(c1ccccc1)c1ccccc1 | -5 | 10 | · | 4 | 1 | i | · | -11
Cn1ccc2c(N3c4ccccc4CCc4ccccc43)cc3c(c21)C1CCC3C1 (configuration not stated) | · | 25 | · | -1 | -1 | · | · | 5
COc1ccc(C2OCC3(CO2)SC(=O)NC3=O)cc1OC (configuration not stated) | -20 | -7 | -13 | 14 | 10 | i | -1 | -11
COc1ccc(CNC(=O)C(c2ccc(C)o2)N(C(=O)c2snc(C(N)=O)c2N)c2ccccc2OC)cc1 (configuration not stated) | 10 | -6 | -12 | -4 | -5 | i | -2 | ·
N=c1n(CCN2CCCCC2)c2ccccc2n1CC(=O)c1cccs1 | 32 | -2 | -2 | 3 | 3 | i | 5 | -16
COc1ccc(NC(=O)NCc2cccnc2)c(OC)c1 | -6 | -96 | -6 | -1 | 1 | i | 11 | -3
Cc1ccc(C(=O)NNC(=O)C2CCN(c3ncccn3)CC2)cc1 | 3 | -1 | -8 | -3 | 1 | i | -3 | -4
Cc1ccc(C)c(NC(=O)Cn2cc(C(=O)C3CC3)c3ccccc32)c1 | 0 | 7 | 9 | 10 | -3 | i | 32 | 13
Cc1ccccc1NCC(=O)N/N=C\c1ccc2c(c1)OCO2 | 4 | -4 | 11 | 5 | 5 | i | -4 | ·
Cc1ccc(-n2nnnc2SCC(=O)Nc2ncc(Cc3ccccc3Cl)s2)cc1 | · | · | -9 | 3 | 3 | i | -10 | -10
CC(C)NC(=O)N(C)C[C@@H]1Oc2c(NS(=O)(=O)c3ccccc3)cccc2C(=O)N([C@@H](C)CO)C[C@@H]1C | · | -31 | · | 7 | 1 | · | · | -3&21
CCCCn1c(N)c(N(CCOC)C(=O)CCNC(=O)NC23CC4CC(CC(C4)C2)C3)c(=O)[nH]c1=O | · | 0 | · | 0 | 3 | · | · | 2
O=S(=O)(c1ccccc1)c1nc(-c2ccccc2Cl)oc1NCCN1CCOCC1 | 5 | 18 | 1 | -1 | -12 | · | -5 | -11
CC1CC(C)CN(C(=O)Cn2nnc(-c3ccccc3)n2)C1 (configuration not stated) | -5 | 19 | 3 | 5 | 5 | i | 12 | -12
Cc1nc2cc(NC(=O)Nc3nccs3)ccc2n1C | · | · | 4 | -1 | 0 | i | 4 | -31
CSc1ccccc1NC(=O)CSc1nnc(Cc2ccccc2)o1 | · | 10 | -5 | 3 | 2 | i | 9 | -8
CCc1ccc(NC(=O)CCCN2C(=S)NC(C)(C)CC2C)cc1 (configuration not stated) | -11 | -10 | -1 | 2 | 1 | i | 24 | -24
NC(=O)C1=C[C@H](c2ccccc2)C[C@H](OCc2ccc(CO)cc2)O1 | -7 | -24[16.7 µM] | 0 | 8 | 8 | i | 3 | -18&-5
NS(=O)(=O)c1ccc(Cl)cc1[N+](=O)[O-] | -16 | 18 | -7 | 6 | 1 | i | -4 | ·
Cc1ccc(OCCNC(=O)Cc2ccc(S(=O)(=O)N3CCOCC3)s2)cc1 | 10 | 15 | -5 | 1 | 0 | i | -6 | 9
CC(C)(C)NC(=O)CN(C(=O)CCC(=O)Nc1nccs1)c1ccc(F)c(Cl)c1 | 6 | -7 | -5 | -1 | -1 | i | 1 | -5
Cc1cccc(/C=N/NC(=O)c2cc(-c3cccnc3)nc3c2c(C)nn3-c2ccccc2)c1 | 8 | · | -14 | 1 | -6 | i | 13 | -8
COc1cccc(C(=O)N/N=C/c2ccc(Oc3ccc([N+](=O)[O-])cn3)c(OC)c2)c1 | · | -35 | -2 | -3 | -1 | i | -1 | ·
CCOC(=O)c1c(N)sc(N)c1C(=O)OCC | 3 | 11 | 0 | -1 | 6 | i | 34 | ·
CC[C@]12c3[nH]c4ccccc4c3CCN1C(=O)C(CC(=O)NCc1cccc(C(F)(F)F)c1)C[C@@H]2C(=O)N1CCN(C(=O)C2CC2)CC1 (some centres not stated) | · | -30 | · | 1 | -5 | · | · | -10
CC(C)(C)NC(=O)COC(=O)c1ccccc1Oc1ccccc1 | -20 | 10 | -2 | 2 | 0 | i | 6 | 8
Cc1nn(-c2ccccc2)c(Cl)c1C(=O)Nc1nnc(C2CCCC2)s1 | -3 | -50 | -2 | -3 | -7 | i | 1 | -10
COCc1c(C(=O)OCC(=O)c2c(N)n(CC(C)C)c(=O)n(C)c2=O)oc2ccccc12 | -2 | 5 | 0 | 1 | -6 | i | -3 | -10
COc1ccc(NS(=O)(=O)c2ccc(N3CCOCC3)c(NC(=O)c3ccc(F)cc3)c2)cc1 | 23 | -6 | -9 | 3 | -7 | i | -2 | 1
O=C(NCC(c1cccs1)N1CCOCC1)c1cc(F)cc(F)c1 (configuration not stated) | · | 26 | · | -5 | -11 | · | · | 0
CC(C)c1ccc(C(=O)N2CCOCC2c2cc(C(=O)Nc3ccccc3)no2)cc1 (configuration not stated) | · | -20 | · | 0 | -1 | · | · | 2
Brc1ccccc1/C=N/Nc1ccc2ccccc2n1 | -8 | -112 | 0 | 2 | 3 | i | 19 | ·
O=C(CSc1ncnc2sccc12)Nc1ccc(S(=O)(=O)N2CCOCC2)cc1 | · | 28 | · | 3 | 0 | · | · | -6
COc1ccc(S(=O)(=O)N(C)c2ccc(C(=O)N3CCCCC3)cc2)cc1OC | -5 | 17 | -6 | 1 | -12 | i | 6 | 6
O=C(CCSCc1cccc(Cl)c1)NCCC1=CCCCC1 | -4 | 12 | -5 | 5 | 7 | i | -7 | 5
O=C(NN1CCOCC1)c1ccc(Cl)c([N+](=O)[O-])c1 | 6 | -73 | -5 | 0 | 1 | i | -4 | -2
Oc1c(Cl)cc(Cl)c(Cl)c1Cc1c(O)c(Cl)cc(Cl)c1Cl | 99* | · | 51* | -3 | -33 | i | -1.5* | -21 | eIF4H inh retest=96*;PABP polyA inh retest=85*
CCOC(=O)c1c(/N=C/C2=C(O)CC(C)(C)CC2=O)sc(C)c1C | -8 | -15 | 12 | 2 | 2 | i | 6 | -8
CN(C)c1ccc(NC(=O)CSc2nc3c(c(=O)[nH]2)CCCC3)cc1 | 0 | · | -2 | -3 | 1 | i | 2 | ·

Fetched one by one from the list above (2):
SMILES | CSC inhib | HIV Env fusion | eIF4H inh | MT1-MMP act inh | MT1-MMP act inh RFP | Rce1 inhib | PABP polyA inh | UUG fidelity | others
COc1cccc(C(=O)N/N=C/c2ccc(Oc3ccc([N+](=O)[O-])cn3)c(OC)c2)c1 | · | -35 | -2 | -3 | -1 | i | -1 | ·
CC(C)(C)NC(=O)CN(C(=O)CCC(=O)Nc1nccs1)c1ccc(F)c(Cl)c1 | 6 | -7 | -5 | -1 | -1 | i | 1 | -5

Carrying on.
SMILES | CSC inhib | HIV Env fusion | eIF4H inh | MT1-MMP act inh | MT1-MMP act inh RFP | Rce1 inhib | PABP polyA inh | UUG fidelity | others
COc1ccc2cc(CCNC(=O)C3CCCC3)c(=O)[nH]c2c1 | -14 | -30 | 0 | -4 | 2 | i | 10 | 10
CN(C)CC/C=C1\c2ccccc2CSc2ccccc21 | -3 | -333 | · | -5 | -6 | · | · | -4
O=C1CC2C(=O)NCCN2C(=NC(=O)c2ccc(Cl)cc2)N1 (configuration not stated) | 5 | -13 | -7 | 2 | -1 | i | -16 | ·
CCCCC(=O)Nc1ccc2c(c1)nc(CCN1CCN(c3ccccn3)CC1)n2C | -8 | 11 | -1 | 3 | -4 | i | -17 | -2
C[C@@]12C(=O)N(Cc3ccccc3)CC(=O)N1[C@H](/C=C/c1ccccc1)[C@@H]1C(=O)N(c3ccccc3)C(=O)[C@@H]12 | -14 | 2 | -1 | · | · | i | 7 | ·
CC1(C(=O)NS(=O)(=O)c2ccc(F)cc2F)CCN1C(=O)CCc1ccccc1 (configuration not stated) | · | -4 | · | -1 | 1 | · | · | -9
COC(=O)c1ccc(C2c3c(oc4ccc(Cl)cc4c3=O)C(=O)N2CCN2CCOCC2)cc1 (configuration not stated) | 4 | 1 | 2 | -1 | 3 | i | -3 | 7
CCS(=O)(=O)C(=C(Nc1ccc(OC)cc1)Nc1ccc(OC)cc1)S(=O)(=O)CC | 0 | -5 | -4 | 4 | 4 | i | -5 | -15
Cn1c(=O)n(C)c2cc(NC(=O)CSc3ccccc3)ccc21 | -13 | -3 | -7 | 3 | 3 | i | -6 | -11
CC(=O)N1CCc2c(sc(NC(=O)Cc3ccc(F)cc3)c2C(N)=O)C1 | -6 | 4 | · | · | · | i | · | -6

Bioassay records deposited in PubChem by several laboratories.
